# Screening results deposited in PubChem by National Center for Advancing Translational Sciences (NCATS).
# Rango release inh: inhibition of RanGTP-driven Rango-importin beta dissociation | O95149+P62826 | Biochemical FRET Rango-importin beta, RanGTP-induced dissociation | Potency, µM (doses to about 46.1 µM), for the others: at the highest dose activity change, negative = inhibition | hit rate 0.071% among 340,000 | AID 540253; active means falling FRET ratio curve, often poorly fitted, with flat reads before Ran was added; inconclusive means other falling curves, or compound fluorescence or quenching; inactive means flat or rising ratio curve;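 also: potency is read from the fitted curve at half-maximal effect; % of control where 0% means no effect; nearly all actives have a fitted effect of over 45% in size; -100% = wells without RanGTP and RCC1; the record marks most hits as doubtful in a second field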
#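 Rango FRET biosensor (snurportin-1 IBB flanked by N-terminal EYFP and C-terminal CFP10) at 0.1 uM, with 0.25 uM importin beta in PBS, 1mM DTT, 0.02% Tween-20, 0.1% BSA. 0.6 uM Ran, 2mM GTP and 0.2 uM RCC1 were then added for 45 min at room temperature. Inhibition read as loss of FRET rise.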
# miR-21 reporter: miR-21 reporter, rising signal; HeLa miR-21 FLuc reporter, luciferase, 48 h; AID 2288; 340,000 tested, under 10 active; Potency, µM (series often up to 38.3 µM), without a hit: top-dose reporter change, positive = more light; active = well fitted rising curve with a large enough effect; inconclusive = small, poorly fitted or top-dose-only effect; inactive = no such curve, though single readings can be large or run the other way;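 also: % of control where 0% means no effect; miR-21 action dims this reporter so a rising signal means less miR-21 action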
#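 HeLa miR-21-FLuc reporter line, endogenous miR-21; 2000 cells/well in DMEM/10% FBS; compound titration up to ~40uM final, 48 h, 37 degree Celsius; luciferase detection reagent, 15 min lysis, CCD luminescence.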
# Rango complex inh: prevents formation of the Rango-importin beta complex; Q14974; Rango CFP/YFP FRET sensor + importin beta, 45 min; Potency, µM (top dose mostly 92.2 µM), for the others: top-dose inhibition of complex formation; hit rate 0.031% among 340,000; AID 540263; active = rising FRET ratio curve, often small or poorly fitted; inconclusive = mostly compound fluorescence or quenching in the first reads; inactive = flat curves in all reads;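 also: potency is read from the fitted curve at half-maximal effect; 0% = DMSO wells and 100% = buffer wells lacking importin beta; nearly all actives have a fitted effect of over 15% in size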
#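 FRET biosensor Rango (snurportin 1 IBB between N-terminal EYFP and C-terminal Cerulean), 50 nM in PBS/1 mM DTT/0.02% Tween-20/0.1% BSA, preincubated 5 min RT with compound; 0.125 microM importin beta added, 45 min RT, CFP/YFP FRET ratio read.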
# GLA inh pH 4.5: alpha-galactosidase A (human) inhibition, pH 4.5 | P06280 | 230,000 tested, under 10 active | purified enzyme, 4-MU-alpha-Gal fluorescence, pH 4.5 | activity change, negative = inhibition, % at 105 µM | AID 1467; inconclusive = small, poorly fitted or top-dose-only inhibition, or a rising curve; inactive = flat fitted curve, though single readings scatter; no compound was filed as active;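 also: 0% = full activity with enzyme and -100% = basal without enzyme; dose as in the result columns while the protocol names 77 µM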
# Target sequence (P06280 whole entry, looked up): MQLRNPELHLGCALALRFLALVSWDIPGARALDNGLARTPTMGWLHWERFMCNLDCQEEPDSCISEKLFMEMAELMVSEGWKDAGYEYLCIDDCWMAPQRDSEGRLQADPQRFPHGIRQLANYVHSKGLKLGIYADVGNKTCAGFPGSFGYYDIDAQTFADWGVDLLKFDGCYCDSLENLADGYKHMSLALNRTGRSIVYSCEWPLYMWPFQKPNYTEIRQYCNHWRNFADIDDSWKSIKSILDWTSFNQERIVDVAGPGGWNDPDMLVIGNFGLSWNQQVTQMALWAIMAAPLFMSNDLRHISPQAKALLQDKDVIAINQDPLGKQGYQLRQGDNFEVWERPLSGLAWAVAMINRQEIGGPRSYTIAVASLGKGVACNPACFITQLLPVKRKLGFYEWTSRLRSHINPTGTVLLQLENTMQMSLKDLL
# * marks the source's active call; other numbers are inactive results; ? = inconclusive; nt = not tested or not shown. A portion of the library; count on the stated rates, not on these rows.
item	SMILES	Rango release inh	miR-21 reporter	Rango complex inh	GLA inh pH 4.5
1	CCCCNc1nc2ccccc2n1CC(=O)Nc1c(C)cccc1CC	8.2%	-4.4%	4.4%	-4.3
2	COc1ccc(C(=O)N2CCOC2CNC(=O)C(=O)NCCc2ccccc2OC)cc1 (centres undefined)	6.6%	-0.3%	-0.2%	nt
3	CCCn1c(N)c(N(CCOC)C(=O)CSCC(=O)Nc2cccc(C)c2)c(=O)[nH]c1=O	31.5%	nt	0.9%	nt
4	Cc1cc(NC(=O)CSc2nc(N)c(NC(=O)c3ccc(F)c(F)c3)c(=O)[nH]2)no1	9.1%	-7.8%	-0.8%	nt
5	CN(c1ccccc1)S(=O)(=O)c1cccc(NC(=O)c2ccc3ncsc3c2)c1	-17.9%	?	0.7%	-0.3
6	Cc1ccc(NCCC#N)cc1C	4.1%	-6.3%	-0.5%	-1.1
7	Cc1[nH]c2ccccc2c1C(=O)CSc1nc2ccccc2c(=O)n1-c1ccccc1F	nt	-4.4%	nt	-16.7
8	Cc1cc(C)cc(NC(=O)c2ccc(NC3=NC4CS(=O)(=O)CC4S3)cc2)c1 (centres undefined)	-1.0%	-4.6%	0.9%	nt
9	O=C(CSc1ccc(Br)cc1)N1CCN(S(=O)(=O)c2ccccc2)CC1	-8.2%	8.8%	-0.8%	nt
10	COc1cccc(N2CCN(S(=O)(=O)c3cc4c(cc3C)N(C)CCO4)CC2)c1	5.9%	3.3%	2.2%	nt
11	O=C(c1cc2ccccc2oc1=O)N1CCN(S(=O)(=O)c2ccccc2)CC1	4.4%	1.9%	-0.3%	nt
12	COc1ccc(S(=O)(=O)N2CCN(C(=O)CC3CC4CCC3C4)CC2)cc1 (centres undefined)	5.7%	nt	-0.7%	nt
13	COc1ccccc1CN(C)CC(=O)Nc1cccc(S(=O)(=O)N2CCCCC2)c1	0.7%	nt	-1.2%	nt
14	CCN1CCN(CC(=O)Nc2ccc(Cl)c(Cl)c2)C(=O)C1=O	13.6%	-2.5%	0.0%	-0.8
15	NS(=O)(=O)c1ccc(CCNC(=O)c2cc(-c3ccco3)nc3ccccc23)cc1	-12.3%	nt	-4.1%	nt
16	CC(=O)c1cccc(NC(=O)CSC(=O)c2ccccc2)c1	-12.3%	-6.9%	-1.4%	-2.9
17	COc1cccc(CNC(=O)CCC(=O)n2ncc3cc(C)ccc32)c1OC	3.5%	-6.8%	-3.3%	nt
18	CNS(=O)(=O)c1cc(-c2nnc(N3CCOCC3)c3ccccc23)ccc1C	-2.5%	nt	-0.2%	nt
19	Cc1nc(N2CCCCC2)c(C#N)c(C)c1[N+](=O)[O-]	10.8%	-1.4%	0.0%	-0.7
20	Cc1cccn2c(CN3CCNC(=O)CC3)c(C(=O)N(C)CCc3ccccc3)nc12	-28.2%	-3.3%	-2.9%	-1.2
21	Cc1ccc(-c2nnc(CSc3nnc(COc4ccccc4)n3-c3ccc(C)cc3)o2)cc1	2.1%	-1.7%	?	-13.6
22	CCCCN(C)C/C(O)=C(\C#N)c1nc(-c2ccccc2)cs1	-8.7%	-19.0%	0.1%	-5.5
23	Cc1cccc(-c2cc3nc4c(c(NCc5ccco5)n3n2)CCCC4)c1	-9.7%	-55.5%	0.2%	-6.8
24	Cc1ccc(NC(=O)C(C)SCC(=O)Nc2ccc(F)cc2)cc1S(=O)(=O)N1CCOCC1 (centres undefined)	13.1%	nt	-5.0%	nt
25	O=C(CC1SC(N2CCOCC2)=NC1=O)Nc1ccc(Cl)cc1 (centres undefined)	4.0%	nt	-0.9%	nt
26	CCOC(=O)C1(Cc2cccc(OC)c2)CCCN(C(=O)c2cc(C)on2)C1 (centres undefined)	1.0%	-50.1%	-2.3%	nt
27	OCC(CO)(CO)n1cnnn1	-2.4%	-0.2%	-1.6%	1.9
28	O=C(C[n+]1ccc(C(=O)NCc2ccccc2)cc1)c1ccc2c(c1)OCCO2	?	-1.1%	?	-7.2
29	Cc1ccc(NC(=O)c2cc(C)nc3ccccc23)c(Br)c1	-0.2%	-0.5%	-1.1%	nt
30	COc1cccc(CNC(=O)COC(=O)c2ccc(C(=O)c3ccccc3)cc2)c1	-12.6%	nt	-0.6%	nt
31	NC(=O)NC1CCCc2c1[nH]c1ccc(Cl)cc21 (centres undefined)	15.5%	-0.3%	4.4%	3.8
32	COc1ccc(-n2c(=O)c3c(C)c(C)sc3n(Cc3cccc(F)c3)c2=O)c(OC)c1	-12.7%	-0.2%	-1.5%	4.8
33	CCC(Cc1ccccc1)NC(=O)Cn1ncc2ccsc2c1=O (centres undefined)	7.4%	0.1%	-1.2%	-0.2
34	CC1(C)Cc2c(sc(/N=C/N3CCOCC3)c2C#N)C(C)(C)N1	20.6%	-8.1%	8.6%	1.9
35	Cc1c(NC(=O)Nc2ccccc2Cl)sc(=S)n1C	7.5%	-7.1%	-0.3%	-0.4
36	COc1ccccc1CN(C)C(=O)c1cc(-c2cccs2)nc2ccccc12	8.1%	27.1%	3.0%	nt
37	O=C(CN1CCN(S(=O)(=O)c2ccc(Br)cc2)CC1)Nc1ccc2c(c1)OCCO2	2.2%	21.8%	-2.5%	-8.4
38	Cc1ccc(-n2nc3ccc(NC(=O)c4ccco4)cc3n2)cc1	-14.0%	-36.5%	-0.1%	6.0
39	CC(C)c1ccc(/C=C/C(=O)NCCCN2CCOCC2)cc1	-14.2%	nt	-1.2%	nt
40	COc1ccc(CNC(=O)CN2CCC(NC(=O)c3cccc(OC)c3)CC2)cc1	-14.6%	nt	0.2%	nt
41	COc1cccc2c1-c1c(C(=O)O)cccc1C2=O	-9.7%	0.0%	0.3%	nt
42	CCOc1cc(N2CCOCC2)c(OCC)cc1NC(=O)c1cnccn1	-6.0%	nt	0.5%	nt
43	CCOC(=O)Cc1csc(NC(=O)CSc2nnc3ccccn23)n1	?	-0.4%	1.2%	3.5
44	Cc1ccc(C)c(NC(=O)CSc2nc3c(oc4ccccc43)c(=O)n2-c2ccccc2)c1	-2.0%	2.5%	0.0%	-3.4
45	COc1ccccc1NS(=O)(=O)c1ccc(C)c(NC(=O)NCCCl)c1	10.6%	2.2%	1.7%	-3.7
46	O=C(Nc1ccc(F)c(Cl)c1)Nc1cnccn1	-0.2%	-4.9%	2.1%	9.8
47	Cc1cccc(C)c1NC(=O)COC(=O)c1c2c(nc3ccccc13)/C(=C\c1ccc3c(c1)OCO3)CCC2	?	-15.3%	?	-3.3
48	CCc1ccc(-c2cc3c(=O)n(CC(=O)N4CCCC4)nc(C)n3n2)cc1	-3.4%	-1.6%	4.6%	nt
49	Cc1onc(-c2ccccc2Cl)c1C(=O)NC(=S)NCC(=O)c1ccccc1	5.5%	-14.9%	?	4.0
50	CCCCCCCNC(=O)COc1ccc2c(c1)C(=O)CC(C)(C)O2	-9.1%	-1.7%	-1.2%	1.2
51	COc1ccccc1CC(=O)NCC(c1ccco1)N1CCCCC1 (centres undefined)	9.1%	-3.3%	-0.4%	-4.4
52	COc1cccc(CNC(=O)C2CCC(=O)N(CCc3cccc(F)c3)C2)c1 (centres undefined)	2.5%	-0.5%	-0.6%	nt
53	CCC(C)N(C(=O)CSc1nc(C)nc2ccccc12)C1CCS(=O)(=O)C1 (centres undefined)	4.3%	nt	-1.4%	nt
54	COc1cc(C(=O)OC2CCOC2=O)c([N+](=O)[O-])cc1OC (centres undefined)	-1.6%	-1.4%	0.1%	nt
55	O=C(NNC(=O)c1ccc(S(=O)(=O)N2CCOCC2)cc1)c1ccccc1	-19.6%	-0.3%	-1.0%	nt
56	COc1ccc2c(c1)C(=O)N(Cc1ccccc1)C(=O)C2(C)C	-5.0%	-30.4%	-4.1%	nt
57	CC(=O)Nc1ccc(C(=O)OCC(=O)/C(C#N)=C(\C)N)cc1	10.1%	-15.3%	-0.9%	5.6
58	CCC(=O)c1cn(CC(=O)Nc2c(C)cccc2C)c2ccccc12	2.6%	2.1%	-2.2%	nt
59	CC(C)c1ccc(NC2CCCN(C(=O)c3ccc(N4CCOCC4)cc3)C2)cc1 (centres undefined)	-2.9%	16.7%	0.5%	nt
60	O=c1c2ccccc2nc2ccc(NCc3ccco3)nn12	-20.6%	-40.4%	-5.1%	2.6

# (further entries)
item	SMILES	Rango release inh	miR-21 reporter	Rango complex inh	GLA inh pH 4.5
61	CC(Sc1nnnn1C1CCCCC1)C(=O)O (centres undefined)	2.7%	1.1%	1.9%	2.3
62	CCCCCN1CC(O)=C(c2nc3ccccc3[nH]2)C1=N	7.8%	-34.4%	2.6%	-0.5
63	O=C(O)c1ccc(CS(=O)(=O)c2cccc(C(F)(F)F)c2)o1	-6.6%	-6.2%	5.0%	nt
64	O=C1c2ccccc2C(=O)N1CCc1nc2ccccc2c(=O)n1-c1ccccn1	-3.0%	-8.6%	?	-0.2
65	CCN1C(=O)c2cccc3c(S(=O)(=O)NCc4cccnc4)ccc1c23	?	12.9%	?	5.2
66	CC(C)CCNC(=O)C(=O)Nc1ccc2c(c1)N(S(=O)(=O)c1cccs1)CCC2	0.3%	nt	?	nt
67	CCCn1ncc([C@@H]2C[C@H]3CN(Cc4cccc(Cl)c4)C(=O)[C@]34CCCN24)c1C	-10.6%	-4.8%	0.1%	-8.2
68	O=C(CN(Cc1ccc(F)cc1)C(=O)CNS(=O)(=O)c1ccccc1)NCc1ccco1	13.6%	1.2%	0.2%	nt
69	COc1ccccc1CNC(=S)NC1CCCC1	-2.7%	-1.8%	0.5%	-13.0
70	O=C(CSc1n[nH]c(-c2ccccc2F)n1)NCC(=O)Nc1ccc(F)c(F)c1F	6.8%	0.7%	1.5%	-6.2
71	COc1ccccc1NC(=O)Nc1cccc(C(=O)O)c1	10.1%	2.1%	-1.4%	-0.9
72	O=C(/C=C/c1ccccc1)Nc1cccc(C(=O)N2CCCCC2)c1	-2.4%	nt	-1.3%	nt
73	Cc1ccc(-n2c(SCC(=O)N/N=C/c3c(C)nn(-c4ccccc4)c3C)nc3ccccc3c2=O)cc1	5.1%	-7.5%	-2.4%	4.3
74	CN(C)CCCNC(=O)CC1C[C@H](C(=O)N2CCCCC2)[C@@]2(CCc3ccccc3)c3[nH]c4ccccc4c3CCN2C1=O (some centres undefined)	-0.3%	nt	-1.3%	nt
